Assay outcomes deposited in PubChem BioAssay by National Center for Advancing Translational Sciences (NCATS).
2A Renilla: lowers the Renilla signal of an FMDV 2A StopGo reporter; HEK cells with a luciferase reporter of 2A StopGo recoding; Potency, µM (highest dose often 57.5 µM), without a hit: top-dose signal change, negative = less light; actives 0.32% (n = 120,000); active means well fitted falling curve with a large enough effect; inconclusive means small, poorly fitted or top-dose-only effect; inactive means no such curve, though single readings can be large or run the other way; note: nearly all actives have a fitted effect of over 55% in size; overnight with compound
StopGo FLuc: lowers the firefly signal of an FMDV 2A StopGo reporter; HEK cells with a luciferase reporter of 2A StopGo recoding; Potency, µM (titrated, usually from 57.5 µM), for inactives: at the top dose signal change, negative = less light; actives 0.23% (n = 120,000); AID 1745856; active = well fitted falling curve with a large enough effect; inconclusive = small, poorly fitted or top-dose-only effect; inactive = no such curve, though single readings can be large or run the other way; note: nearly all actives have a fitted effect of over 60% in size; overnight with compound
* hit, by the source's call; ? = inconclusive; & = joins results of further samples; [ ] = dose if it differs, or a comment. % is set by controls: 0 for no effect and ±100 for the full control effect; potency is the fitted concentration of half-maximal effect.

No.	molecule	StopGo FLuc	2A Renilla
1	COc1ccc(CNC(=O)Cn2ccn3nc(-c4ccc5c(c4)OCO5)cc3c2=O)cc1	25%	-1%
2	N#Cc1nc(C2CC2)oc1N1CCN(C(=O)NCC2CC2)CC1	-1%	-9%
3	COc1cccc(Cn2c(C)c(CNC3CCCCC3)c(C(=O)O)c2C)c1	-7%	3%
4	COc1ccc(Cl)cc1NC(=O)/C(C#N)=C/c1coc2ccc(C)cc2c1=O	-15%	8%
5	COc1cccc(CNC(=O)c2cc(S(=O)(=O)N3CCCCCC3)cn2C)c1	-3%	17%
6	O=S(=O)(c1ccc(Cl)cc1)c1ccc(Cl)cc1	-5%[22.9 µM]	50%[activator][114 µM]
7	CCCCCC/C(=C\C=N\NC(N)=O)c1ccccc1	0%	-7%
8	Cc1cc(C)c(NC(=O)CCc2c[nH]c3ccccc23)c(C)c1	-15%	-21%
9	Oc1c(C(c2ccccc2)N2CCOCC2)sc2nc(-c3ccco3)nn12 (stereo not given)	-21%	-4%
10	O=C1OC(C(=O)Nc2cccc(Br)c2)Cc2ccccc21 (stereo not given)	30%	34%[activator]
11	CCOc1ccc(OC(=O)c2cn(-c3ccc(C)cc3)c(=O)c3ccccc23)cc1	-25%	-7%
12	COc1cc(C(=O)COC(=O)CSc2cc(Cl)ccc2Cl)cc(OC)c1OC	-11%	-10%
13	O=C(Nc1c(Cl)cc(Cl)cc1Cl)C12CC3CC(CC(Cl)(C3)C1)C2	5%	-1%
14	CC1CCN(S(=O)(=O)c2ccc3c(c2)CCN3C(=O)Nc2ccccc2Br)CC1	0%	45%[activator]
15	Cc1nn2c3c(cnc2c1-c1ccc(Cl)cc1)C(=O)CC(c1ccc(C(C)C)cc1)C3 (stereo not given)	-22%	-14%
16	CCOC(=O)c1[nH]c(C)c(CCC(=O)NCc2ccc(C)cc2)c1C	-6%	2%
17	O=C(Nc1ccc2c(c1)N(C1CCCC1)C(=O)c1ccccc1S2)c1ccccc1	?	?
18	O=C(c1cc(C(F)(F)F)cc(C(F)(F)F)c1)N1CCCC(CO)C1 (stereo not given)	-3%	-12%
19	Cc1ccc(-c2ccnc3c2c(=O)[nH]c(=O)n3CCc2ccccc2)cc1	-8%	-11%
20	C=Cc1ccc(Cn2nc(-c3ccc(C)cc3)ccc2=O)cc1	-23%	4%
21	COc1ccc2[nH]c(CO)cc2c1	23%	-13%
22	CC1CCN(c2nc3nonc3nc2Nc2cccc(Br)c2)CC1	-9%	-9%
23	O=C(c1ccc2c(c1)OCCO2)N(Cc1cccnc1)c1nc2ccc(Cl)cc2s1	71%[activator]	-10%
24	N#Cc1nc(-c2ccccc2F)oc1NCCc1ccccc1	0%	74%[activator]
25	O=C(Nc1ccccn1)c1cc(-c2ccncc2)nc2ccccc12	143%[activator]	20%
26	COc1ccc(Nc2oc(-c3ccc(COc4ccc(OC)cc4)o3)nc2C#N)cc1	33%	3%
27	Cc1cccc(C(=O)Nc2cc3c(cc2N2CCOCC2)n(C)c(=O)n3C)c1	16%	-19%
28	COc1cccc(C2C3=C(COC3=O)Nc3c2c(=O)n(C)c(=O)n3C)c1OC (stereo not given)	-10%	-7%
29	CCOc1ccccc1CNc1ccc2cc(S(=O)(=O)N3CCC(C)CC3)ccc2n1	3%	83%[activator]
30	CC(C)NS(=O)(=O)c1ccc2nc(NC(=O)c3cncc(Br)c3)sc2c1	-9%	-2%
31	Brc1ccccc1-c1nn2c(Cn3cnc4ccccc43)nnc2s1	18%	12%
32	Cn1ccnc1C(O)(CC(=O)Nc1ccc(F)cc1)C(F)(F)F (stereo not given)	16%	12%
33	Cc1cc(C)cc(C(=O)NCCc2c[nH]c3ccccc23)c1	0%	7%
34	O=C(O)CCn1c(=O)cc(C(F)(F)F)c2cn(C3CCCC3)nc21	19%	16%
35	Cc1ccc(CC(=O)N(CC#N)C2CC2)s1	3%	-6%
36	CCCn1nc(C(=O)OCC(N)=O)c2ccccc2c1=O	-5%	-5%
37	COc1cccc2sc(N3CCN(C(=O)CS(=O)(=O)c4ccc(Cl)cc4)CC3)nc12	?	?
38	Cc1cc(C)c2c(-n3cccc3)c(C(=O)NCCCN3CCCCC3)sc2n1	-9%	-12%
39	Cc1nn(CC(=O)N2CCN(c3ccccc3)CC2)c(=O)c2cccn12	-23%	-16%
40	CCC(=O)N1CCc2cc(S(=O)(=O)CCC(=O)Nc3cc(Cl)ccc3OC)ccc21	-19%	-9%
41	CN(CC(=O)NC1CC1)C(=O)CSc1nnc(-c2ccc(Cl)cc2)n1C	-7%	-15%
42	Cc1oc(-c2nc(C#N)c(NCc3ccccc3)o2)cc1S(=O)(=O)N(C)C	-5%	16%
43	COc1ccc(-c2nc(CSCC(=O)N3CCN(c4ccccc4)CC3)c(C)o2)cc1	?	38%[activator]
44	Fc1ccc(/C=N/Nc2cccc(Cl)c2)cc1F	0%	16%
45	CCOC(=O)Nc1ccc(NS(=O)(=O)c2ccccc2Br)cc1	-4%	193%[activator]
46	CCc1cnc2c(c1SCC(=O)c1ccc(OC)cc1)c(=O)n(C)c(=O)n2C	-15%	-11%
47	Cc1ccc2c(COC(=O)c3cccs3)cc(=O)oc2c1	25%	17%
48	Cc1ccc2c(Cl)cc(Cl)c(OCC(=O)N3CCCC3)c2n1	24%	28%
49	CCN(CC)c1ccc2cc(-c3nc(-c4ccccc4)no3)c(=O)oc2c1	41%[activator]	-7%
50	CCc1cccc(C)c1NC(=O)C(C)Sc1nc2c(c(=O)[nH]1)CCCC2 (stereo not given)	14%	0%

Individual results from the results shown.
Cc1ccc(CC(=O)N(CC#N)C2CC2)s1 in 2A Renilla reads -6%
Cc1oc(-c2nc(C#N)c(NCc3ccccc3)o2)cc1S(=O)(=O)N(C)C in StopGo FLuc reads -5%

New compounds follow:
No.	molecule	StopGo FLuc	2A Renilla
51	CCOC(=O)c1cc2cc(NC(=O)C3CC(=O)Nc4ccccc43)ccc2s1 (stereo not given)	3%	4%
52	C=C(C)Cn1c(SCCO)nc2c1c(=O)[nH]c(=O)n2C	9%	2%
53	O=C(CCc1ncc(-c2ccc(F)cc2F)o1)Nc1ccccc1	31%[activator]	-3%
54	Cc1cc(C)c(C)c(S(=O)(=O)Nc2ccc(N)c([N+](=O)[O-])c2)c1C	0%	63%[activator]
55	CCOCCCNC(=O)c1cc(-c2ccccc2)nc2ccccc12	18%	10%
56	Fc1ccc(Nc2c3c(nc4nncn24)CCC3)cc1	?	-30%
57	Cc1cccc(C(=O)Nc2ccc(-c3nc4ccccc4s3)c(C)c2)c1	28%&74%	0%&-21%
58	CCOC(=O)N1CCN(Cc2nc3cc(NC(=O)COc4ccccc4C)ccc3n2C)CC1	?	?
59	Oc1ccc(NCc2ccccc2OCc2ccc(Cl)cc2)cc1	61%[activator]	0%
60	Cc1cc(C)n(-c2nc3ccccc3nc2Nc2cccc(Cl)c2)n1	-10%	-16%
61	Cc1ccc(-n2ccnc(NCc3ccccc3)c2=O)cc1C	0%	-11%
62	COc1ccc(CCNC(=O)c2ccc(Nc3nc4ccccc4n4nnnc34)cc2)cc1OC	87%[activator]	?
63	Cc1c(O)ccc2c(CN3CCN(CCc4ccncc4)CC3)cc(=O)oc12	-2%	-4%
64	Cc1ccccc1CCNC(=O)c1cccc2ncccc12	48%[activator]	9%[1.06 µM]
65	C/C(=N\NC(=O)C1CCCCC1)c1ccc(C)s1	0%	11%
66	Clc1ccc(CN2CCC(CNc3ncnc4onc(-c5ccc(Cl)cc5)c34)CC2)cc1	-6%	-4%
67	COc1cc(CNC(=O)c2cc3n(n2)CCCN(Cc2cccc(F)c2)C3=O)cc(OC)c1OC	2%	43%[activator]
68	CCOC(=O)c1cc(S(=O)(=O)N(C)CC(=O)N2CCN(c3ccc(Cl)cc3)CC2)cn1C	?	?
69	Oc1ccc([S+]2CCCC2)c2ccccc12	7%	5%
70	Cc1ccc(Nc2nnc(SCC(=O)N3CCOCC3)s2)c(C)c1	16%	-1%
71	Cc1ccc(OCC(=O)Nc2ccc(Cl)c(-c3nc4ncccc4o3)c2)c(C)c1	1%	5%
72	Cc1cccc(NC2=C(C(N)=O)S(=O)(=O)c3ccccc32)c1	0%	-15%
73	CN(C(=O)c1cc2cccc([N+](=O)[O-])c2[nH]1)C1CCCCCC1	191%[activator]	-1%
74	O=C(CCc1ncc(-c2ccccc2F)o1)N1CCN(S(=O)(=O)c2ccccc2Cl)CC1	19%	-3%
75	CCNS(=O)(=O)c1ccc(C)c(C(=O)N2CCCC2c2ccc(OC)c(OC)c2)c1 (stereo not given)	0%	7%

4 entries from above in a different format:
63. Cc1c(O)ccc2c(CN3CCN(CCc4ccncc4)CC3)cc(=O)oc12
  StopGo FLuc: -2%
  2A Renilla: -4%
2. N#Cc1nc(C2CC2)oc1N1CCN(C(=O)NCC2CC2)CC1
  StopGo FLuc: -1%
  2A Renilla: -9%
8. Cc1cc(C)c(NC(=O)CCc2c[nH]c3ccccc23)c(C)c1
  StopGo FLuc: -15%
  2A Renilla: -21%
32. Cn1ccnc1C(O)(CC(=O)Nc1ccc(F)cc1)C(F)(F)F (stereo not given)
  StopGo FLuc: 16%
  2A Renilla: 12%

Continued:
No.	molecule	StopGo FLuc	2A Renilla
76	CCc1nn2c(=O)cc(CNc3ccccc3NC(=O)c3ccccc3)nc2s1	7%	-2%
77	C[N+](C)(CC(=O)c1ccccc1)Cc1ccccc1	20%	12%
78	CC1CCCN(c2nc(-c3ccc(Cl)cc3)nc3ccccc23)C1 (stereo not given)	0%	3%
79	CCCOc1ccccc1C(=O)Nc1nonc1CC	15%	17%
80	O=C(c1ccc(OC(F)F)cc1)N1CCC(NS(=O)(=O)c2cccs2)CC1	-4%	8%
81	COc1ccc(C(=O)n2nc(-c3ccco3)nc2NCc2cccs2)cc1OC	53%[activator]	6%
82	CNCc1ccc(OCc2cccc(Cl)c2)c(OC)c1	95%[activator]	-1%
83	COc1ccc(C2CC(=O)Nc3c2ncn3-c2cccc(C(F)(F)F)c2)cc1OC (stereo not given)	26%	19%
84	CC(C)N(Cc1ccccc1)C(=O)Cn1ncc2c3ccccc3n(Cc3ccccc3)c2c1=O	1%	-11%
85	Cc1c(Cl)cccc1NC(=O)CSc1nc2ncccc2o1	11%	18%
86	Cc1ccc(-c2ccc(=O)n(Cc3ccc(Cl)cc3)n2)cc1S(=O)(=O)N1CCCC1	6%	-5%
87	O=C(NCCC12CC3CC(CC(C3)C1)C2)c1cccs1	130%[activator]	7%
88	O=C(NCCc1ccccc1)c1ccc(CSc2nc3cccnc3n2Cc2ccccc2F)cc1	61%[activator]	47%[activator]
89	COCCCNC(=O)CSc1nc(-c2ccccc2)[nH]c1-c1ccc(C)cc1	3%	29%
90	CCCCN1CCc2nc(N3CCN(C)CC3)ncc2C1	-6%	13%
91	COC(=O)c1ccc(C2NC(=O)NC(C)=C2C(=O)N2CCOCC2)cc1 (stereo not given)	3%	-3%
92	CC1=C(OS(=O)(=O)c2ccc(C)cc2)C(C)(C)C(c2ccccc2)OC1=O (stereo not given)	?	?
93	CC(C)NC(=O)C1CCN(C(=O)c2cc(-c3ccccc3)nc3ccccc23)CC1	48%[activator]	30%
94	CC(=O)c1ccc(NC(=O)Cn2ccc3ccc(Cl)cc32)cc1	42%[activator]	65%[activator]
95	Cc1nc(Oc2ccccc2)c2c3c(sc2n1)CCCC3	3%	3%
96	COc1cc(NC(=O)c2nc(-c3ccc(Cl)cc3)n3c2CCCCC3)cc(OC)c1OC	-12%	9%
97	COc1ccc(N(C)C(=O)CCn2cnc3onc(-c4ccc(F)cc4)c3c2=O)c(OC)c1	?	?
98	CC(/C=N/NC(=O)C1CC1c1ccc(C(C)(C)C)cc1)c1ccccc1 (stereo not given)	57%[activator]	0%
99	Cc1ccc(CN2CC(C(=O)N(C)CC(=O)Nc3ccc(Br)cc3C)CC2=O)cc1 (stereo not given)	-5%	11%
100	CC(C)(C)c1ccc(O)c(NC(=O)Cc2n[nH]c(=O)c3ccccc23)c1	9%	18%

Whole records, looked up by structure. Order of screens: StopGo FLuc | 2A Renilla
Profile of COc1cccc(CNC(=O)c2cc(S(=O)(=O)N3CCCCCC3)cn2C)c1 = -3% | 17%
Profile of CCOC(=O)c1[nH]c(C)c(CCC(=O)NCc2ccc(C)cc2)c1C = -6% | 2%
Profile of Cc1oc(-c2nc(C#N)c(NCc3ccccc3)o2)cc1S(=O)(=O)N(C)C = -5% | 16%
Profile of Clc1ccc(CN2CCC(CNc3ncnc4onc(-c5ccc(Cl)cc5)c34)CC2)cc1 = -6% | -4%
Profile of COc1ccc(Nc2oc(-c3ccc(COc4ccc(OC)cc4)o3)nc2C#N)cc1 = 33% | 3%

(list continues)
No.	molecule	StopGo FLuc	2A Renilla
101	COc1ccc(CCC(C)=O)cc1	-12%	-11%
102	COc1ccc(CNC(=O)c2cc3c(=O)n(Cc4ccc(OC)cc4)ccc3nc2C)cc1	-3%	0%
103	CC1CCN(S(=O)(=O)c2ccc3c(ccc(=O)n3CC(=O)Nc3cccc(F)c3)c2)CC1	-12%	6%
104	CCN(Cc1ccc(Cl)s1)C(=O)c1cnc(C)cn1	-13%	-3%
